# Screening results as filed in PubChem BioAssay.
# VACV Venus inh: inhibitors of vaccinia virus (Venus reporter) | AID 720580 | 330,000 tested, 0.46% active | Potency, µM (highest dose often 36.5 µM), for inactives: top-dose activity change, negative = inhibition, hits mostly inhibitors | Vaccinia virus Venus reporter expression, fluorescence; active means well fitted inhibition curve with a large enough effect; inconclusive means small, poorly fitted or top-dose-only effect; inactive means no such curve, though single readings can be large or run the other way; tested in A549 cells; further: nearly all actives have a fitted effect of over 30% in size; inactives centre near -10
# Vaccinia mCherry: vaccinia inhibition (mCherry reporter). Vaccinia virus mCherry reporter infection, fluorescence; about a quarter of the inactives have no number. Potency, µM (series often up to 36.5 µM), for inactives: top-dose activity change, negative = inhibition, actives largely listed as inhibitors. 310,000 tested, 0.63% active. AID 720579; active = well fitted inhibition curve with a large enough effect; inconclusive = small, poorly fitted or top-dose-only effect; inactive = no such curve, though single readings can be large or run the other way; tested in A549 cells; further: nearly all actives have a fitted effect of over 35% in size; inactives centre near -10
# The depositor's hits bear a star; i = inactive; ? = inconclusive; nt = no result given; [ ] = dose if it differs, or a comment. On the % scale 0 is the no-effect control and ±100 the full control effect; potency means the concentration at half of the fitted maximal effect.
SMILES,VACV Venus inh,Vaccinia mCherry
COc1cc2c(cc1NC(=O)COC(=O)Cn1cnc3ccccc31)oc1ccccc12,-15%,-25%
O=C1C(Cc2ccccc2)Nc2ncnc(N3CCN(c4ccccc4)CC3)c2N1Cc1ccccc1 (centres undefined),-25%,-18%
O=C(NC1CCCCC1)C(c1ccco1)N(Cc1cccnc1)C(=O)C1COc2ccccc2O1 (centres undefined),5%,-16%
CCn1c(=O)c2sccc2n2c(CCC(=O)N3CCN(c4ccccc4OC)CC3)nnc12,-11%,-3%
CCOc1cc(C2c3c(oc4ccc(F)cc4c3=O)C(=O)N2Cc2ccco2)ccc1O (centres undefined),-2%,0%
CCN1CCN(c2cc(C)c3cc(NC(=O)/C=C/c4cccc(OC)c4OC)ccc3n2)CC1,?,?
CCC(Sc1nc2ccccc2o1)C(=O)Nc1nnc(C)s1 (centres undefined),-8%,i
O=C(c1ccc(NS(=O)(=O)c2ccc3c(c2)OCCO3)cc1)N1CCCCC1,-15%[7.34 µM],i[7.34 µM]
CC1CCCCN1C(=O)c1cc(-c2ccc3c(c2)OCO3)on1 (centres undefined),2%,7%
CNC(=O)c1cccc(-n2c(C)nc3cccnc32)c1C,8%,-5%
COc1ccc(NC(=O)c2ccc3c(c2)sc2nc(-c4ccc(OC)cc4)cn23)cc1,8%,7%
Clc1ccc(-c2csc3ncnc(NCCN4CCOCC4)c23)cc1,?,-27%
Cc1ccc(N(C)C(=O)c2noc3c2CCCCC3)cc1C,-15%,-2%
COC(=O)c1ccccc1Oc1nc(Cl)cc(OC)n1,-10%,-8%
COc1ccccc1NC(=O)c1cc2ccc(O)cc2o/c1=N\O,-29%,?
COc1ccc(-n2c(=S)[nH]c3cc(C(=O)NCCCN4CCOCC4)ccc3c2=O)cc1OC,-4%,-13%
Cc1ccccc1CSCc1ccc(C(=O)NCCc2ccccc2)o1,-6%,-8%
CC1CCN(c2c([N+](=O)[O-])c(=O)oc3ccccc23)CC1,1%,-2%
O=C(NCCc1cccc(Cl)c1)C1CCC(=O)N(Cc2ccc(Cl)cc2)C1 (centres undefined),-24%,-9%
CCN(CC)CCNC(=O)C(=O)NCC(c1ccc2c(c1)OCO2)N1CCOCC1 (centres undefined),1%,0%

# Some of the entries so far, with two lines to a compound.
# Screens in order: VACV Venus inh, Vaccinia mCherry
O=C(c1ccc(NS(=O)(=O)c2ccc3c(c2)OCCO3)cc1)N1CCCCC1
  -15%[7.34 µM], i[7.34 µM]
CC1CCCCN1C(=O)c1cc(-c2ccc3c(c2)OCO3)on1 (centres undefined)
  2%, 7%

# Other compounds:
SMILES,VACV Venus inh,Vaccinia mCherry
NC(=O)CNc1ncc(C(F)(F)F)cc1Cl,-29%,-20%
CC(OC(=O)C1=Cc2ccccc2OC1)C(=O)NCc1ccco1 (centres undefined),-14%,-1%
CCOC(=O)C1=C(CN2CCN(c3ccc(C)cc3C)CC2)NC(=O)NC1c1ccc(OC)cc1 (centres undefined),?,-22%
CCCCCn1c(=O)[nH]c2cc(C(=O)N3CCN(c4cccc(OC)c4)CC3)ccc2c1=O,-6%,-19%
CC(C)CC(C(=O)OCC(=O)c1c(N)n(C)c(=O)n(C)c1=O)N1C(=O)C2CC=CCC2C1=O (centres undefined),-12%,-9%
Cc1cc(OCC(O)CNC(C)c2ccccc2)ccc1C(C)C (centres undefined),?,?
Cc1ccc2c(c1)N(C(C)C(=O)NCc1ccccn1)C(=O)CO2 (centres undefined),2%,-22%
Cc1sc2ncnc(SCC(=O)N(C)C3CCS(=O)(=O)C3)c2c1C (centres undefined),-13%,i
Cc1cccc(CCNC(=O)CCS(=O)(=O)c2ccc3nc(C)sc3c2)c1,-2%,-5%
CCOC(=O)c1ccc(N/C(=N\S(=O)(=O)c2ccc(F)cc2F)c2ccccc2)cc1,-11%,i
Cc1c(C(=O)/C=C/c2ccccc2F)c2cc(O)ccc2n1C,-14%,?
COC(=O)c1c(NC(NC(=O)C(C)(C)C)C(Cl)(Cl)Cl)sc2c1CCC2 (centres undefined),?,nt
Cc1ccc(OCCN(C)C(=O)CC2C(=O)NCCN2CC(C)(C)C)cc1 (centres undefined),-7%,-4%
CN(CC(=O)Nc1c(Cl)cccc1Cl)C(=O)c1ccc(-n2cncn2)c([N+](=O)[O-])c1,0%,-13%
CC(=O)Nc1sc2c(c1C#N)CCC2,-8%,-12%
CN(C)S(=O)(=O)c1cccc(NC(=O)c2cccc(S(=O)(=O)N3CCCCCC3)c2)c1,?,-27%
CCOC(=O)C1=C(C)NC(=O)C(C#N)C1c1ccncc1 (centres undefined),-2%,-4%
O=C(CCN1CCC2CCC(C2)C1)c1ccccc1 (centres undefined),8%,-12%
O=C(NCCc1ccccc1)C(=O)NCC(c1ccc2c(c1)OCO2)N1CCOCC1 (centres undefined),-6%,-3%
Cc1ccc(-n2c(O)c(C=Nc3ccc(S(=O)(=O)N(C)C)cc3)c(=O)[nH]c2=O)cc1,-7%,-16%
CCn1c(C)cc(/C=C2\NC(=O)N(CC(=O)Nc3cccc(C)c3)C2=O)c1C,-5%,-10%
NS(=O)(=O)c1ccc(N=Nc2c(O)[nH]c3ccc(Br)cc23)cc1,-9%,-20%
Cc1ccc(C(=O)N/C(=C/c2cccnc2)C(=O)O)cc1,3%,?
O=C(c1cc2sccc2n1Cc1ccc(F)cc1)N1CCN(c2nc3ccccc3s2)CC1,?,?
CC1(c2nnc(Cc3ccccc3)o2)CC(c2cccc(F)c2)=NO1 (centres undefined),-11%,-19%
CC/C(=N/OC(=O)c1cccc(C)c1)C(=O)c1cccs1,-13%,i
Cc1nnc2n(c1=O)C(CS(=O)(=O)c1ccc3ccccc3c1)CS2 (centres undefined),-1%,0%
CCCS(=O)(=O)N1CCCC(C(=O)NCc2ccc3c(c2)OCO3)C1 (centres undefined),-11%,nt
COCCNC(=O)Cn1nc(C(F)(F)F)c(Cl)c1C,-11%,nt
Clc1ccc(NN(Cc2ccncc2)c2ccc(Cl)cc2)cc1,-21%,-17%
COc1ccccc1N(C)S(=O)(=O)c1ccc(C(=O)Nc2nnc(C)s2)cc1,-10%,-12%
CCCCN(C)CCCNC(=O)C1CC(=O)N(Cc2ccc(OC)cc2)C1 (centres undefined),-14%,nt
Cc1cccc(OCC(=O)NNC(=O)C2CCN(c3ncnc4sc(C)c(C)c34)CC2)c1,-26%,-11%
COc1cc(OC)c(C(=O)OCC(=O)Nc2cc(C)on2)cc1OC,-5%,-9%
CCCOc1ccc(OC(=O)c2ccc(-c3ccc(CCC)cn3)cc2)cc1,-13%[7.34 µM],-4%[7.34 µM]
Cc1ccccc1CSc1nnc2[nH]c(=O)cc(C)n12,-10%,i
O=C(NCCc1cccnc1)C1CCC(=O)N(Cc2cccc(C(F)(F)F)c2)C1 (centres undefined),-9%,i
CCCCc1c(C)c(C#N)c2[nH]c3ccccc3n2c1=O,-15%,nt
O=c1oc2ccc3ccccc3c2cc1-c1nnc(Nc2ccccc2F)s1,-8%,-7%
Cc1c(=O)n(OCc2ccccc2)c2ccccc2[n+]1[O-],4%,nt

# Structural class, those above containing a nitro group on carbon
SMILES,VACV Venus inh,Vaccinia mCherry
CC1CCN(c2c([N+](=O)[O-])c(=O)oc3ccccc23)CC1,1%,-2%
CN(CC(=O)Nc1c(Cl)cccc1Cl)C(=O)c1ccc(-n2cncn2)c([N+](=O)[O-])c1,0%,-13%

# The results go on.
SMILES,VACV Venus inh,Vaccinia mCherry
COc1ccc(-c2nnc(SCC(=O)Nc3ccc(Cl)cc3)n2C)cc1,-4%,-8%
COC(=O)c1c(NC(=O)c2ccc(S(=O)(=O)N3CCOCC3)cc2)sc2c1CCN(C)C2,?,-10%
CN(Cc1ccccc1)C(=O)C1CCCN1S(=O)(=O)c1ccc2c(c1)n(C)c(=O)c(=O)n2C (centres undefined),0%,-2%
Cc1ccc(NS(=O)(=O)c2ccccc2Cl)c2c1CC(C)(C)O2,-6%,-23%
CCOc1ccc(CCNC(=O)COC(=O)c2ccco2)cc1OCC,-1%,-5%
O=C(CC1SC(=Nc2ccccc2)N(Cc2ccccn2)C1=O)Nc1ccc(Br)cc1 (centres undefined),-25%,?
CCOC(=O)c1c(C)n(-c2ccc(OC)cc2)c2ccc(O)c(CN(C)C)c12,-28%,?
O=P(CN1CCN(c2ccccc2)CC1)(N1CCCCC1)N1CCCCC1,-10%,i
Cc1cc(C(=O)Nc2ccc3ccccc3c2)c(C)o1,3%,-6%
O=C(CCc1nnc(CCCCc2ccccc2)o1)NCc1cccc(F)c1,-15%,i
CC(C)(C)c1cnnn1-c1ccc([N+](=O)[O-])cc1,-4%,i
COc1cccc(COC(=O)C2CCN(S(=O)(=O)c3ccc(C)cc3)CC2)c1OC,-9%,-11%
CC(CCc1ccc(O)cc1)NC(c1ccccc1)c1ccc(Cl)cc1 (centres undefined),?,-27%
Cc1cccc(C(=O)NCCc2n[nH]c(=S)n2C)c1,-9%,i
O=C(NCCc1cccnc1)C1CCC(=O)N(CCc2cccc(F)c2)C1 (centres undefined),-7%,-16%
Cc1ccc(NC(=O)C2CCN(S(=O)(=O)c3ccc4c(c3)OCCCO4)CC2)nc1,-18%,-5%
N#C/C(=C\c1ccccc1)C(=O)N1CCC(C(N)=O)CC1,2%,-12%
CC(=O)NCCCc1nc2ccccc2n1Cc1c(F)cccc1Cl,4%,-13%
CCCN(CCC)CCCNC(=O)c1cc2c(=O)n(C)c3ccccc3c2s1,-6%,-8%
C(=C\c1ccc2ccccc2n1)/c1ccc2ccccc2n1,-4%,-6%

# Sorted by heavy-atom count (highest first): part of the list above
SMILES,VACV Venus inh,Vaccinia mCherry
Cc1ccc(NC(=O)C2CCN(S(=O)(=O)c3ccc4c(c3)OCCCO4)CC2)nc1,-18%,-5%
O=C(NCCc1cccnc1)C1CCC(=O)N(CCc2cccc(F)c2)C1 (centres undefined),-7%,-16%
CC(=O)NCCCc1nc2ccccc2n1Cc1c(F)cccc1Cl,4%,-13%
Cc1ccc(NS(=O)(=O)c2ccccc2Cl)c2c1CC(C)(C)O2,-6%,-23%
Cc1cccc(C(=O)NCCc2n[nH]c(=S)n2C)c1,-9%,i

# (more compounds)
SMILES,VACV Venus inh,Vaccinia mCherry
Cc1cccc(N2C(=O)CS(=O)(=O)C23C(=O)N(C)c2ccccc23)c1 (centres undefined),3%,4%
O=C(Nc1sc2c(c1C(=O)NCc1ccccc1)CCCC2)c1cc(=O)c2ccccc2o1,-14%,-20%
COc1ccc(C(=O)C2CCCN(S(=O)(=O)c3ccccc3F)C2)c(C)c1 (centres undefined),-18%,i
Cc1ccc(NC(=O)Cn2cc(C(=O)C3CCCCC3)c3ccccc32)cc1,-10%,-2%
Cc1ccc(C(=O)Oc2ccc(/C=C3\C(=N)N4N=C(N5CCOCC5)SC4=NC3=O)cc2)cc1,-6%,22%
Nc1c(Br)cc([N+](=O)[O-])cc1[N+](=O)[O-],-15%,i
Nn1c(SCC(=O)NCCN2C(=O)CSC2=O)nnc1-c1ccc(OC(F)F)cc1,-8%,i
Cc1ccc(NC(=O)/C(C#N)=C\c2ccc(-c3ccc(Cl)cc3)o2)c(C)c1,-22%[7.34 µM],-24%[7.34 µM]
CCOC(=O)c1c(C)sc(-c2c(-c3ccc(OC)c(F)c3)[nH]c3[nH]c(=O)[nH]c(=O)c23)c1O,5%,6%
COCc1cccc(-c2csc(C(N)c3ccc(F)c(F)c3)n2)c1 (centres undefined),-6%,-13%
CCS(=O)(=O)C1C(=O)N(C)C(S(=O)(=O)CC)C(=O)N1C (centres undefined),4%,i
CCC(=O)Nc1ccccc1-c1nc2ccccc2n(C(CC)C(=O)Nc2cccc(Cl)c2)c1=O (centres undefined),?,?
CCCCn1nnnc1C1(C)CCC(=O)N1CC1CCCCC1 (centres undefined),8%,i
NNC(=O)c1cc(O)c(O)c(O)c1,2%,1%
O=S(=O)(NC1CC1)c1ccc(Cl)cc1F,-10%,24%
CCCC(C)Sc1nc2c([nH]1)c(=S)n(C)c(=O)n2C (centres undefined),-21%,-14%
CCCCC(CC)Cn1c(N)c(C#N)c2nc3ccccc3nc21 (centres undefined),?,?
CCOC(=O)N1CCC(Nc2ncnc3c2cnn3-c2ccc(C)cc2C)CC1,?,?
CC1CCC/C(=C(\C#N)c2nc(-c3cc4ccccc4oc3=O)cs2)C1 (centres undefined),-14%,-26%
CCOC(=O)/C=C1/SCC(=O)N1Cc1ccc(Br)cc1,12%,-1%
CCCCN1CCCc2cc(CN(CCCN3CCOCC3)C(=O)Nc3ccc(OCC)cc3)ccc21,-17%,-30%
CCN(CC)S(=O)(=O)c1ccc2oc(C(=O)NC3CC3)c(C)c2c1,-15%,-9%
